Compound activity: PubChem, National Center for Advancing Translational Sciences (NCATS)
Vaccinia Venus: vaccinia inhibition (Venus reporter). Vaccinia virus Venus reporter expression, fluorescence. Potency, µM (doses to about 36.5 µM), without a hit: top-dose activity change, negative = inhibition, most hits filed as inhibitors. actives 0.46% (n = 330,000). AID 720580; active means well fitted inhibition curve with a large enough effect; inconclusive means small, poorly fitted or top-dose-only effect; inactive means no such curve, though single readings can be large or run the other way; tested in A549 cells; note: nearly all actives have a fitted effect of over 30% in size; inactives centre near -10
Vaccinia mCherry: inhibitors of vaccinia virus infection (mCherry reporter signal). Vaccinia virus mCherry reporter infection, fluorescence; about a quarter of the inactives have no number. actives 0.63% (n = 310,000). Potency, µM (series often up to 36.5 µM), for inactives: at the top dose activity change, negative = inhibition, most hits filed as inhibitors; active = well fitted inhibition curve with a large enough effect; inconclusive = small, poorly fitted or top-dose-only effect; inactive = no such curve, though single readings can be large or run the other way; tested in A549 cells; note: nearly all actives have a fitted effect of over 35% in size; inactives centre near -10
Numbers without * were called inactive; i = inactive; u = inconclusive; x = no result given; [ ] = remark or other dose. % is set by controls: 0 for no effect and ±100 for the full control effect; potency is the fitted concentration of half-maximal effect.

canonical_smiles | Vaccinia mCherry | Vaccinia Venus
CC(C)CCN(C(=O)CNC(=O)c1cccs1)C(C(=O)NC1CCCC1)c1ccncc1 (stereo not drawn) | -19% | -10%
CC(=O)Nc1ccc(C2Nc3c(C)cc(C)cc3-c3cc(C)nn32)cc1 (stereo not drawn) | 44%[activator] | 10%
CCOc1ccc(CCNC(=O)c2sc3ncccc3c2-n2cccc2)cc1OCC | -11% | -11%
COc1ccc(CN2CCc3c(c(=O)n4ncc(C(=O)N5CCN(c6ccccc6OC)CC5)c4n3C)C2)cc1 | -19%[7.34 µM] | u
Cc1ccc(C)c(NC(=O)CSc2ccc(-c3ccco3)nn2)c1 | i | -18%
COc1ccc(Br)cc1CNC(=O)Cn1ncn2nc(-c3cccs3)cc2c1=O | u | u
COc1ccc(OC)c(CCNC(=O)c2ccc(NC3=NC4CS(=O)(=O)CC4S3)cc2)c1 (stereo not drawn) | u | u
CC(=O)Nc1ccccc1C(=O)C(=O)O | 8% | 18%
COC(=O)c1ccc(S(=O)(=O)NCCc2ccccc2OC)n1C | -1%[7.34 µM] | 2%[7.34 µM]
O=C(Nc1ccc(S(=O)(=O)N2CCCCC2)cc1)C1CC(=O)N(c2ccc(F)cc2)C1 (stereo not drawn) | -14% | -3%
CCOc1cc2sc(N3CCC(C(=O)Nc4ccc(C(C)C)cc4)CC3)nc2cc1Br | -1% | -15%
C[n+]1cn(/N=C/c2ccccc2)c2ccccc21 | i | -16%
CC(C)CN1CC(COCc2ccccc2)Oc2ccccc2S1(=O)=O (stereo not drawn) | -5% | -14%
Cc1cccc(OC(C)C(=O)Nc2ncn[nH]2)c1 (stereo not drawn) | -15% | -10%
Cc1c(CNC2CCCCCC2)c(C(=O)O)c(C)n1Cc1c(F)cccc1Cl | 2% | 4%

Single records, from the list above:
`Cc1c(CNC2CCCCCC2)c(C(=O)O)c(C)n1Cc1c(F)cccc1Cl` as listed: Vaccinia mCherry = 2%; Vaccinia Venus = 4%
`CC(C)CCN(C(=O)CNC(=O)c1cccs1)C(C(=O)NC1CCCC1)c1ccncc1` (stereo not drawn) as listed: Vaccinia mCherry = -19%; Vaccinia Venus = -10%

The main list resumes; the 3 compounds before the break are reprinted first.
canonical_smiles | Vaccinia mCherry | Vaccinia Venus
CC(C)CN1CC(COCc2ccccc2)Oc2ccccc2S1(=O)=O (stereo not drawn) | -5% | -14%
Cc1cccc(OC(C)C(=O)Nc2ncn[nH]2)c1 (stereo not drawn) | -15% | -10%
Cc1c(CNC2CCCCCC2)c(C(=O)O)c(C)n1Cc1c(F)cccc1Cl | 2% | 4%
Cc1noc(C)c1C(=O)N1CCC(Cc2ccccc2)CC1 | 3% | 1%
CCCCCOc1ccc(NC(=O)CCCC(=O)O)cc1 | x | -28%
O=c1cc(O)c2c(=O)n(-c3ccccc3)c3ccccc3c2o1 | -14% | -9%
CC(C)CN(C(=O)CN1CCN(c2ccc(F)cc2)CC1)c1c(N)n(CC(C)C)c(=O)[nH]c1=O | -13% | -8%
CCc1nc2ccc(C(=O)N3CCN(C)CC3)cn2c1N(C)CCC(C)C | 45%[activator] | 1%
Cc1ccc(-c2nc(Cn3c(=O)cc(-c4ccccc4)c4c(C)nn(C)c43)c(C)o2)cc1 | -12% | 0%
O=C(CC1CCCC1)N1CCN(S(=O)(=O)c2cccc(Br)c2)CC1 | i | -11%
CCCn1cc(C(=O)O)cn1 | -14% | -9%
Cc1cccc(OCc2nnc(SCC(=O)c3c(N)n(C4CC4)c(=O)[nH]c3=O)o2)c1 | -14% | 3%
COc1ccc2nc(SCC(O)c3cccc(Br)c3)[nH]c2c1 (stereo not drawn) | i | -15%
OCC1(Cc2ccccc2)CCCN(C2CCCC2)C1 (stereo not drawn) | -8% | -7%
Cc1cccc2c(/C=C/c3ccc(N(C)C)cc3)ccnc12 | -18% | -9%
C/C(=N\Nc1ccccc1Cl)c1ccc(-n2ccnc2)cc1 | i | -8%
Cc1nnc(SC(C)C(=O)NC2CCCCC2)s1 (stereo not drawn) | -10% | -11%
CCCOC1CCCN(C(=O)c2cc(COc3c(F)cccc3F)on2)C1 (stereo not drawn) | -15% | -12%

Other structures follow.
canonical_smiles | Vaccinia mCherry | Vaccinia Venus
CCS(=O)(=O)N1Cc2ccccc2CC1C(=O)Nc1cccc(OC)c1 (stereo not drawn) | -13% | -2%
Cc1c(Cl)cccc1NC(=O)N1CCC(CN2CCOCC2)CC1 | i | -9%
C=CCc1ccc(OCCCOc2ccc(C(=O)O)cc2)c(OC)c1 | 4% | -7%
CCOC(=O)C1=CCN(S(=O)(=O)c2ccccc2F)C1c1ccc(C)cc1 (stereo not drawn) | 9% | -2%
CCn1c(C)c(C(=O)NCCc2ccccc2)c2cc(OC)ccc21 | i | -18%
COc1ccc(C(C)(O)c2nc(-c3ccc(C)c(C)c3)cs2)cc1 (stereo not drawn) | -9% | -25%
CN(C)S(=O)(=O)N(CC(=O)N1CCC(Cc2ccccc2)CC1)c1ccccc1 | -6% | -3%
CC1CCN(C(=O)C2CCN(S(=O)(=O)c3cccc4cccnc34)CC2)CC1 | -15% | -5%
COC(=O)c1ccc(/C=C2\CCn3c2nc2cc(C(=O)O)ccc2c3=O)cc1 | 8% | 9%
O=C(Cc1c(Cl)cccc1Cl)NCCc1ccc(Cl)cc1 | -8% | -3%
CC1(C)CC(=O)/C(=C(/O)CCCN2C(=O)c3ccccc3C2=O)C(=NC(C)(C)C)C1 | -7% | -1%
COC(=O)c1ccc(CSc2nc3ccccc3c(=O)n2CC(C)C)o1 | x | -22%
Cc1ccc(S(=O)(=O)N(CC(=O)N(C)C)c2cccc([N+](=O)[O-])c2)cc1 | -24% | -16%
CCCN1CN(CCc2ccccc2)CNC1=S | -8% | -11%
CCOc1ccc(Br)cc1S(=O)(=O)N1CCCC1 | -12% | -4%

New compounds follow.
canonical_smiles | Vaccinia mCherry | Vaccinia Venus
CC(=O)c1ccc(OCCCC(=O)N2CCN(S(=O)(=O)c3ccc(C)cc3C)CC2)cc1 | -24% | -10%
C#CCNC(=O)C1=C[C@H](c2ccccc2)[C@@H](CCCO)[C@H](OCC)O1 | -4% | -6%
CC(C)(C)c1ccc(OCC(=O)NNC(=S)NC(=O)c2ccccc2[N+](=O)[O-])c(Br)c1 | i | -12%
O=C(/C=C/[C@H]1O[C@@H](n2cnc3c(NC(=O)c4ccccc4)ncnc32)[C@H](O)[C@@H]1O)NCc1cccc2ccccc12 | 24% | -7%
O=C(COc1ccc(Cl)cc1Cl)N/N=C1\CCCc2ccccc21 | -10% | -4%
CCCC(=O)Nc1ccccc1NC(=O)CCC | -11% | -6%
COc1ccc(/C=C2\SC(=O)N(CCC(=O)NC3CCS(=O)(=O)C3)C2=O)cc1 (stereo not drawn) | -27% | -8%
Cc1ccc(CN2CC(C(=O)Nc3ccc(C)c(S(=O)(=O)N4CCCCC4)c3)CC2=O)cc1 (stereo not drawn) | u | u
O=C1c2ccccc2C2(c3ccc(F)cc3)NCCN12 (stereo not drawn) | -13% | -8%
CCN(CC)S(=O)(=O)c1ccc(OC)c(NC(=O)CSc2cc(C)ccc2C)c1 | -10% | -21%
CCCCNC(=O)C1C(c2ccc(C(F)(F)F)cc2)=Nc2ccccc2N1C(=O)c1cccc2ccccc12 (stereo not drawn) | u | -19%
O=C(COC(=O)CNC(=O)c1cccc([N+](=O)[O-])c1)Nc1cccc(S(=O)(=O)N2CCCCC2)c1 | 3% | 1%
Cc1nc2sc(C(c3ccccc3)N3CCN(C(=O)c4ccco4)CC3)c(O)n2n1 (stereo not drawn) | -19% | -9%
Cc1ccc(S(=O)(=O)N2CCCC(C(=O)NCCc3ccc(Cl)cc3)C2)cc1 (stereo not drawn) | u | u
CC(/C=N/NC(=O)c1ccc(Br)cc1)=C\c1ccccc1 | -8% | -24%

Carrying on.
canonical_smiles | Vaccinia mCherry | Vaccinia Venus
Cc1occc1C(=O)NC(C)CCc1ccccc1 (stereo not drawn) | x | -4%
C=CCNCC(=O)N1N=C(c2ccc3ccccc3c2)CC1c1ccc(OC)cc1 (stereo not drawn) | u | u
CS(=O)(=O)c1ccc(S(=O)(=O)N2CCN(C(=O)C(O)c3ccccc3)CC2)cc1 (stereo not drawn) | -1% | 3%
N#Cc1c(N2C(=O)c3ccc(C(=O)O)cc3C2=O)sc2c1CCCC2 | -22% | -20%
Cc1cc(C)nc(NC(=O)c2ccc([N+](=O)[O-])o2)n1 | -21% | -4%
CCN1/C(=C/c2ccc3ccccc3[n+]2CC)C=Cc2ccccc21 | x | 41%[activator]
CN(C(=O)CCn1c(=S)oc2ccccc21)C1CCCCC1 | -6% | -7%
COC(=O)[C@@H]1ON2OCC(C)=C3CCCC[C@@]32[C@H]1C(=O)OC | -19% | -3%
CCOc1cc(C2/C(=C(/O)c3ccc(OC(C)C)cc3)C(=O)C(=O)N2CCCOC)ccc1O (stereo not drawn) | x | -5%
COCCNC(=O)C1Nc2ccc(C(F)(F)F)cc2C2C=CCC12 (stereo not drawn) | -20% | u
Cc1cc(NC(=O)CC(CN(C)S(=O)(=O)c2ccccc2)c2ccccc2)no1 (stereo not drawn) | i | u
CC(C)(C)OC(=O)N1CCCC(C(=O)Nc2ccc(C(=O)N3CCCCC3)cc2)C1 (stereo not drawn) | -2% | -20%
CN(CC(=O)O)S(=O)(=O)c1ccc2c(c1)NC(=O)CC(=O)N2 | 9% | 8%
COc1ccccc1C(CC(=O)Nc1ccccc1C)c1ccc(OC(C)C)cc1 (stereo not drawn) | i | -30%
CC(NC(=O)c1ccccc1NC(=O)CN1CCN(c2ccccc2O)CC1)c1ccccc1 (stereo not drawn) | u | -25%

Following part
canonical_smiles | Vaccinia mCherry | Vaccinia Venus
CCC(=O)N(C)C[C@H]1Oc2cc(Br)ccc2S(=O)(=O)N([C@@H](C)CO)C[C@H]1C | i | -7%
NC(=O)C1(Nc2ccc(Cl)cc2)CCCC1 | -12% | -5%
CCOc1ccccc1NC(=O)CSc1nnc2ccc(-c3ccccn3)nn12 | i | -3%
COc1ccc(C2C(=O)N(C3CCCCCC3)CC(=O)N2CCc2ccccc2)cc1 (stereo not drawn) | -12% | -8%
CC(=O)Nc1ccc(-c2csc(NC(=O)Cc3cccc(F)c3)n2)cc1 | u | -22%
CCn1c(CO)nc2c1c(=O)[nH]c(=O)n2Cc1ccccc1 | 3% | -9%
COc1cc(C(=O)OCC(=O)Nc2nnc(-c3ccccc3)o2)cc(OC)c1OC | -14% | -20%
CCCOc1ccc(C2C(=O)N(C3CCCCCC3)CC(=O)N2Cc2ccco2)cc1OC (stereo not drawn) | 6% | -8%
Brc1ccc(COc2ncnc3ccccc23)cc1 | -17% | -5%
Cc1cc(C(=O)Nc2ccc(C(C)C)cc2)c2c(C)nn(-c3ccccc3)c2n1 | -12% | 8%
COc1ccc(Cl)cc1S(=O)(=O)N1CCN(CC(=O)Nc2ccccc2C(F)(F)F)CC1 | -21% | -8%
COc1ccc(N=C2C(=S)N(c3ccc(OC)cc3)C(=NS(=O)(=O)c3ccccc3)N2c2ccccc2)cc1 | i | -11%
CN(CC(=O)Nc1cccc(F)c1)CC(=O)Nc1ccccc1-c1ccccc1 | -4% | 3%
COc1cc(C)ccc1OCc1cc(C(=O)N(Cc2nccn2C)C(C)C)no1 | 7%[7.34 µM] | 0%[7.34 µM]
Cc1cccc(NC(=O)c2cccc(S(=O)(=O)N3CCCCC3)c2)c1 | i | -10%

Further structures follow.
canonical_smiles | Vaccinia mCherry | Vaccinia Venus
O=C(NCc1ccccc1)c1onc(CSc2ccccc2)c1C(=O)NCC1CC1 | -25% | u
CC(Oc1ccccc1F)C(=O)NNC(=O)c1ccc(-n2cncn2)c([N+](=O)[O-])c1 (stereo not drawn) | -9% | -11%
O=C1CC(c2ccc(F)cc2)c2c(c3ccccc3oc2=O)O1 (stereo not drawn) | -9% | 0%
CC1(C(=O)NS(=O)(=O)C2CC2)CCN(C(=O)c2c(F)cccc2F)C1 (stereo not drawn) | -16% | -18%
Cc1ccccc1NC(=O)c1cccc(S(C)(=O)=O)c1 | i | -4%
COc1ccc(CNC(=O)C2CCC(CNS(=O)(=O)c3cccc4nsnc34)CC2)cc1 (stereo not drawn) | u | -15%
CCOC(=O)c1c(N)n(CCN2CCOCC2)c2nc3ccccc3nc12 | -11% | -4%
COc1ccc(-c2csc(NC(=O)Cc3cccc4ccccc34)c2C(=O)O)cc1 | -13% | -9%
Cc1ccccc1-n1c(=O)c2ccccc2n(Cc2ccc(F)cc2)c1=O | -7% | -17%
CC(OC(=O)c1ccc(Br)o1)C(=O)NCC1CCCCC1 (stereo not drawn) | -13% | -11%
CCOC(=O)CC(NC(=O)c1ccc(C)cc1)c1ccc(OC)cc1 (stereo not drawn) | i | -14%
O=C(O)CCCCCN1C(=O)CCC1=O | -16% | -11%
CC1(C)CC(=O)C2=C(C1)OC(N)=C([N+](=O)[O-])C2c1ccc(F)cc1 (stereo not drawn) | -12% | -8%
CCCCSc1ncnc2c1c(-c1ccccc1)cn2-c1cccc(F)c1 | -25% | -17%
N#C/C(N)=C(/C#N)N=Cc1cccc(Cl)c1 | -17% | -8%
COc1ccc(Nc2nc(-c3ccncc3)nc3ccccc23)cc1 | -10% | -21%
COc1ccc(-c2cc(C(F)(F)F)n3nc(C(=O)Nc4c(C)n(C)n(-c5ccccc5)c4=O)c(Cl)c3n2)cc1 | 11% | -4%
CNc1ncnc2c1ncn2[C@H]1CN(Cc2ccc(OC)cc2)C[C@@H](CO)O1 | i | -12%
